MLL AF4-AF9 inh: inhibitors of AF4 peptide binding to AF9, primary screen, biochemical, AlphaScreen, biotin-AF4 peptide, FLAG-AF9, single point | Protein AF-9 (Homo sapiens), P42568 | inhibition, % at 10 µM | 350,000 compounds, 0.47% hits | AID 651704, 2012;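 active = every replicate reaching a set inhibition limit, whatever the replicate mean, cut at about 25% in these data; inconclusive = mean inhibition reaches that limit but some replicates miss it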;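 also: 0% = plate neutral control median and 100% = total signal loss; the record names both 10 and 1 µM as test concentration; the first replicate is given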
Target sequence (P42568 whole entry, looked up): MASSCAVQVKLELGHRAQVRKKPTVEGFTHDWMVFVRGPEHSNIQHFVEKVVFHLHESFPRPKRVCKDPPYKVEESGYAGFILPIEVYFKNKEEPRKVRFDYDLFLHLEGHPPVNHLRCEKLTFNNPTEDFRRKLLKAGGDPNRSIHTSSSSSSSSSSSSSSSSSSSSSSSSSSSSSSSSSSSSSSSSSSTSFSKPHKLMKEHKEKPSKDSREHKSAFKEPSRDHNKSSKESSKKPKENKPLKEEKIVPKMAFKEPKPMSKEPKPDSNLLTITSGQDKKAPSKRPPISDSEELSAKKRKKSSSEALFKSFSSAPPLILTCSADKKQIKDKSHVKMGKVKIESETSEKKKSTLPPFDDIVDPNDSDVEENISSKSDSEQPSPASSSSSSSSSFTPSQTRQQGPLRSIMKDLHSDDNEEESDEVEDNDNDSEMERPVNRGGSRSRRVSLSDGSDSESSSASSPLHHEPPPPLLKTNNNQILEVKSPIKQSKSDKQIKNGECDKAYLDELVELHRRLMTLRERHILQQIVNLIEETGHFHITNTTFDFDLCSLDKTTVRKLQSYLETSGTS
RanGTP-Imp inh: inhibitors of RanGTP-importin-beta interaction, primary screen, biochemical, FRET, CFP-Ran, YFP-importin-beta, homogeneous | Ran GTPase (GTP-bound) - importin-beta complex | cell-free CFP-Ran/YFP-importin-beta FRET ratio | inhibition, % (test concentration not listed) | 300,000 compounds, 1.1% hits;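 active = most replicates above 15%; inconclusive = exactly half above 15%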;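 also: 0% = DMSO wells and 100% = Ran loaded with GDP instead of GTP; wells of about 40 µL received 100 nL stock; the first replicate is given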
Calb FLC: C. albicans growth inhibition with fluconazole, primary screen, CaCi-2 strain, Alamar Blue fluorescence; 300,000 compounds, 0.57% hits; C. albicans CaCi-2 (fluconazole-resistant clinical isolate) + fluconazole, 48 h; growth inhibition, % (test concentration not listed);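 active = most replicates above 75%; inconclusive = exactly half above 75%; inactive = most below 75%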;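 also: all wells also contain fluconazole at 8 µg/ml as a sub-toxic cotreatment; 0% = median of DMSO wells and 100% = median of geldanamycin control wells; wells of about 8 µL received 7.5 nL stock; the first replicate is given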
T cruzi inh: inhibitors of intracellular T. cruzi growth, primary screen, luminescence, NIH3T3 host cells. T. cruzi beta-gal in NIH3T3, 90 h. inhibition, % (concentration not given with the values). 300,000 compounds, 1.4% hits;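 active = mean inhibition across valid replicates above about 55%, limit read from the data; inconclusive = mean below that limit but half or more replicates reach it; inactive = mean below it, under half of replicates reach it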;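 also: signal also drops with host cell toxicity which is not excluded here; 0% = plate median of DMSO wells and 100% = zero luminescence signal; higher percent means less beta-gal luminescence so fewer parasites; stock transfer was 50 nL into about 50 µL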
FGF22 binding: binders of human FGF22 protein, primary screen, FGF22 synaptogenesis inhibitor project, biophysical, thermal shift, single point. Fibroblast growth factor 22 (Homo sapiens), Q9HCT0. recombinant FGF22 thermal shift, SYPRO orange fluorescence; percent of sucrose octasulfate shift, DMSO zero. calls only at 9.99 µM. 340,000 compounds, 1.5% hits. AID 651658, 2012;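 active = melting point raised past a set limit in the mean and every replicate; inconclusive = no clear call; three in four hits are not shown here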
Target sequence (Q9HCT0 whole entry, looked up): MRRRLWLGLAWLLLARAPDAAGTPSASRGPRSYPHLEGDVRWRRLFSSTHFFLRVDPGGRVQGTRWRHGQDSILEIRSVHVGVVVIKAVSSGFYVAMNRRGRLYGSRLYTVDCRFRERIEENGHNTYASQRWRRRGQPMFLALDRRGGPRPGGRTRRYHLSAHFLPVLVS
ALR inh: inhibitors of human ALR sulfhydryl oxidase, primary screen, biochemical, H2O2 detection, HRP-luminol luminescence, single point; FAD-linked sulfhydryl oxidase ALR (Homo sapiens), P55789; AID 485317, 2010; purified ALR, DTT oxidation; 290,000 compounds, 3.8% hits; inhibition, % (concentration not given with the values);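 active = mean and each replicate at 75% or more; inconclusive = only one of the two met; inactive = neither met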;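 also: stock transfer was 7.5 nL into about 7.5 µL; 0% = neutral wells and 100% = wells with inactivated enzyme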
Target sequence (P55789 whole entry, looked up): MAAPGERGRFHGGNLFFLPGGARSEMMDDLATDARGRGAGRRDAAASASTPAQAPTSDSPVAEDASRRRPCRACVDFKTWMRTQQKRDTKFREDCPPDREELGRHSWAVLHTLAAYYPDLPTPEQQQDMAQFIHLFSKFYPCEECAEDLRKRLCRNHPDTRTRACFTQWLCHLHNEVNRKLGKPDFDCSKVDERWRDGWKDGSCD
Ecoli rRNA inh: reduced GFP signal of wild-type E. coli, primary screen, bacterial rRNA inhibitor project, GFP/RFP fluorescence, OD600, single point; E. coli WT GFP vs humanized-ribosome RFP mutants, 24 h; active compounds read low; DMSO median 0, no signal -100; GFP signal change (wild-type ribosome), % (no concentration beside the values); 350,000 compounds, 1.6% hits;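 active = significant combined selectivity score with lowered wild-type GFP, culture density cut under 30%, mutant RFP and density less affected; inactive = any of these conditions unmet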; also: one replicate is shown; some compounds called inactive have numbers as strong as hits
Beta apoptosis: inhibitors of cytokine-induced beta cell apoptosis, primary screen, luminescence; INS-1E cytokine-induced death, ATP luminescence, 48 h; percent of positive-control rescue, neutral wells zero; protection from apoptosis, % (no concentration beside the values); 300,000 compounds, 0.8% hits;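 active = all replicates at 75% or more, or half of them and the mean; inconclusive = half reach 75% but not the mean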;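 also: 0% = cytokine-treated negative control wells and 100% = positive control rescue; higher means more ATP so stronger rescue from cytokine killing; wells of about 40 µL received 100 nL stock; the first replicate is given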
Ecoli rRNA inh OD600: recorded beside Ecoli rRNA inh, whose call it bears; OD600 change, %; measured here: OD600 growth;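 optical density of the mix in the first replicate; 0 = DMSO median and -100 = no signal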
Ecoli rRNA inh RFP: further read-out of Ecoli rRNA inh, marked with its call; RFP signal change, %; measured here: RFP humanized mutant strains;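 first replicate; 0 = DMSO median and -100 = no signal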
An asterisk follows results filed as active; i = inactive; ? = inconclusive; . = not tested or not shown. These rows are one share of the data, so the mix of outcomes need not match the whole.

The first 2 records as a preview:
SMILES | MLL AF4-AF9 inh | RanGTP-Imp inh | Calb FLC | T cruzi inh | FGF22 binding | ALR inh | Ecoli rRNA inh | Ecoli rRNA inh OD600 | Ecoli rRNA inh RFP | Beta apoptosis
CC(=O)NCCNc1ccc([N+](=O)[O-])cc1C#N | 3.6 | -2.3 | -7 | -18 | i | -17 | -1 | -2 | 0.8 | -1
Cn1c(CC(=O)Nc2ccccc2F)nnc1SCC(=O)N1CCOCC1 | -7.6 | 3.7 | 3 | 1 | i | -2 | 8 | 3 | 0.1 | -10

The list itself, from the first entry:
SMILES | MLL AF4-AF9 inh | RanGTP-Imp inh | Calb FLC | T cruzi inh | FGF22 binding | ALR inh | Ecoli rRNA inh | Ecoli rRNA inh OD600 | Ecoli rRNA inh RFP | Beta apoptosis
CC(=O)NCCNc1ccc([N+](=O)[O-])cc1C#N | 3.6 | -2.3 | -7 | -18 | i | -17 | -1 | -2 | 0.8 | -1
Cn1c(CC(=O)Nc2ccccc2F)nnc1SCC(=O)N1CCOCC1 | -7.6 | 3.7 | 3 | 1 | i | -2 | 8 | 3 | 0.1 | -10
Oc1ccc(C2Nc3cccc4cccc(c34)N2)c(O)c1 | . | 5.5 | 1 | -11 | . | -4 | . | . | . | 8
O=C(CCS(=O)(=O)c1ccc(Br)cc1)NC1CCCCCC1 | -12 | -2.1 | -3 | 7 | i | 4 | 7 | 2 | -1.5 | -4
O=C(NC1CCCC1)C1CC(=O)N(C2CCCCCCC2)C1 (stereo not drawn) | -23 | 1.1 | -24 | -10 | i | -5 | 4 | 2 | -8.9 | -1
O=C(c1ccc(CS(=O)Cc2ccc(Cl)cc2)o1)N1CCN(c2cccc(Cl)c2)CC1 (stereo not drawn) | -0.3 | 2.0 | 8 | 24 | i | -6 | -56 | -75 | -14 | -2
O=C(O)c1ccccc1-c1ccccc1C(=O)Nc1cccc2ccccc12 | . | 2.3 | 2 | -8 | . | -6 | . | . | . | -3
COc1ccc(OC)c2[nH]c(=O)c(CCNC(=O)C3CCCCC3)cc12 | . | 5.9 | 28 | 4 | . | . | . | . | . | 5
O=C1CC(Nc2ccc(N3CCOCC3)cc2)C(=O)N1c1ccccc1F (stereo not drawn) | 7.8 | -2.3 | 8 | -2 | i | 99* | -2 | 10 | 21 | .
COc1cccc(NC(=O)Cn2cc(C#N)c3ccccc32)c1 | . | -2.7 | -4 | -2 | . | 1 | . | . | . | 1
O=C(NNC(=O)c1cncc(Br)c1)c1ccncc1 | -8.6 | . | . | . | i | 5 | 6 | 9 | -3.6 | 0
Cc1nn(-c2ccccc2)cc1/C=N/NC(=O)c1cccs1 | -5.1 | -3.3 | -23 | -8 | i | -1 | 11 | 3 | -2.2 | 27

One compound at a time, from the list above. Order of values: MLL AF4-AF9 inh | RanGTP-Imp inh | Calb FLC | T cruzi inh | FGF22 binding | ALR inh | Ecoli rRNA inh | Ecoli rRNA inh OD600 | Ecoli rRNA inh RFP | Beta apoptosis
Profile of COc1cccc(NC(=O)Cn2cc(C#N)c3ccccc32)c1 : . | -2.7 | -4 | -2 | . | 1 | . | . | . | 1
Profile of Cn1c(CC(=O)Nc2ccccc2F)nnc1SCC(=O)N1CCOCC1 : -7.6 | 3.7 | 3 | 1 | i | -2 | 8 | 3 | 0.1 | -10
Profile of O=C(O)c1ccccc1-c1ccccc1C(=O)Nc1cccc2ccccc12 : . | 2.3 | 2 | -8 | . | -6 | . | . | . | -3
Profile of O=C(NNC(=O)c1cncc(Br)c1)c1ccncc1 : -8.6 | . | . | . | i | 5 | 6 | 9 | -3.6 | 0
Profile of CC(=O)NCCNc1ccc([N+](=O)[O-])cc1C#N : 3.6 | -2.3 | -7 | -18 | i | -17 | -1 | -2 | 0.8 | -1

Further structures:
SMILES | MLL AF4-AF9 inh | RanGTP-Imp inh | Calb FLC | T cruzi inh | FGF22 binding | ALR inh | Ecoli rRNA inh | Ecoli rRNA inh OD600 | Ecoli rRNA inh RFP | Beta apoptosis
COc1ccc2nc(-c3cccc(N)c3)[nH]c2c1 | . | -1.0 | -2 | -3 | . | . | . | . | . | 8
O=C(CCC(=O)Nc1ccccc1Cl)NN=C1CCCC1 | -14 | . | 1 | . | i | -15 | 5 | 5 | 8.0 | -2
CCCCCCC(=O)OCC(=O)c1ccc2c(c1)NC(=O)CO2 | -1.3 | 2.2 | -12 | -30 | i | -6 | 4 | 4 | 1.9 | -7
O=C(c1ccc(Cn2c(=S)[nH]c3ccc(Br)cc3c2=O)cc1)N1CCN(C2CCCCC2)CC1 | 2.7 | 4.7 | -9 | 32 | i | -1 | . | . | . | 8
O=C(CNC(=S)N(Cc1ccccc1F)C1CCCCC1)NCCCN1CCOCC1 | -7.7 | . | 28 | . | i | 0 | -3 | -10 | 3.8 | -2
CC(C)(C)N1C(=O)[C@H]2[C@@H](c3ccc(Br)cc3)N3C(=O)N(c4ccc(Br)cc4)C(=O)[C@@]3(Cc3ccccc3)[C@H]2C1=O | . | ? | -5 | 36 | . | -9 | 13 | 14 | -0.1 | 13
Cc1ccccc1CN(C)C(=O)COC(=O)c1ccc2[nH]c(C)c(C)c2c1 | 13 | . | . | . | i | -24 | -20 | -19 | 6.8 | -9
CCCCCCn1c(C(C)NC(=O)c2ccco2)nc2ccccc21 (stereo not drawn) | . | 1.2 | -3 | -5 | . | -1 | . | . | . | 8
CC(=O)Nc1ccc2c(c1)NC(=O)CC2 | -17 | ? | ? | -14 | i | -8 | 9 | 4 | -0.2 | 1
O=C(/C=C/c1cccs1)N1CCc2ccccc21 | 16 | -2.6 | 29 | 5 | i | . | . | . | . | 10
CCN(CC)S(=O)(=O)c1ccc(NC(=O)COC(=O)CCc2cc(OC)c(OC)c(OC)c2)cc1 | . | 1.5 | 6 | 0 | . | -90 | . | . | . | -2
Clc1ccc(CN2CCCCCCC2)cc1 | 3.7 | 1.4 | -4 | 11 | i | . | 8 | 6 | -6.1 | -1
COC(=O)c1cnn(-c2cc(Oc3cccc(C)c3)ncn2)c1N | . | 2.9 | 5 | -6 | . | -3 | . | . | . | 3
O=C(COC(=O)CCc1c[nH]c2ccccc12)Nc1ccc([N+](=O)[O-])cc1 | . | -2.2 | -16 | -10 | . | -1 | . | . | . | -8
O=C(CN(Cc1cccs1)C(=O)CNS(=O)(=O)c1ccc(Cl)cc1)NCc1ccco1 | . | 3.2 | -3 | 12 | . | -1 | . | . | . | -4
CCc1noc(C)c1C(=O)Nc1nc2c(C)cccc2s1 | 7.2 | 0.4 | 6 | 5 | i | . | 4 | 8 | 2.1 | .
COC(=O)Cc1ccc(N(Cc2ccccc2F)S(=O)(=O)c2ccc(Cl)cc2)cc1 | -2.2 | -0.1 | 12 | 27 | i | 0 | 3 | -6 | 3.7 | -2
Cc1ccc(CNC(=O)CCCOc2cc(=O)n(C)c3ccccc23)o1 | . | 2.3 | 10 | 16 | . | 35 | . | . | . | 6
CC(NC(=O)C1CC=CCC1C(=O)O)C1CC2CCC1C2 (stereo not drawn) | . | -0.7 | 12 | -3 | . | -2 | . | . | . | -4
Cc1nc(-c2ccccc2)nc2[nH]ccc(=O)c12 | . | 1.0 | 1 | -9 | . | -5 | . | . | . | -4
COc1ccccc1NC(=O)NCCc1ccccc1 | -1.9 | . | 4 | . | i | -5 | 4 | 9 | 3.4 | 0
O=C(CSc1nc(-c2ccc(F)cc2)cs1)NCC1CCCO1 (stereo not drawn) | 0.7 | . | . | . | i | -8 | -6 | -20 | 0.2 | -2
COc1ccc(C)cc1NC(=O)C1CC1c1ccccc1 (stereo not drawn) | -8.9 | -0.6 | 6 | 6 | i | 0 | -4 | 4 | 0.3 | -1
Cc1ccnc(NC(=O)CCC(=O)N(CC(=O)NCc2ccc(F)cc2)Cc2ccco2)c1 | 1.6 | 1.3 | 2 | -1 | i | -1 | -3 | -2 | -1.2 | -10
CCOc1ccccc1-n1c(SCC(=O)N2CCOCC2)nc2ccccc2c1=O | -2.1 | 11 | -6 | -28 | i | . | 5 | 2 | -1.3 | 0
CCN(CC)c1c([N+](=O)[O-])c(=O)n(C)c2ccccc12 | 2.6 | 0.3 | 0 | 27 | i | 1 | -23 | -38 | -9.8 | -1
CC(=O)c1ccc(-n2c(CCC(=O)O)ccc2-c2ccc(Br)cc2)cc1 | -0.8 | -1.2 | 33 | 1 | i | 50 | 8 | 11 | 0.1 | 1
CC(C)(C)NS(=O)(=O)c1ccc(NC(=S)NC(=O)C2CC2)cc1 | 3.4 | 4.5 | -6 | -3 | i | 7 | -17 | -15 | 0.5 | 0
Cc1ccc2c(c1)N(C(=O)CCC(=O)NCCCN(C)Cc1ccccc1)CCO2 | 0.2 | 0.4 | -9 | 18 | i | -21 | 4 | 3 | 0.1 | -4
CCOC(=O)c1ccccc1NC(=O)c1ccc(F)cc1 | -2.9 | 0.2 | -13 | 10 | i | . | 9 | -7 | -5.1 | -2
CC1CCN(S(=O)(=O)c2cccc(-c3nnc(-c4cccnc4)o3)c2)CC1 | . | -2.3 | 22 | 18 | . | -6 | . | . | . | 1
CCn1c(=NC(=O)CS(=O)(=O)c2ccccc2)sc2cccc(OC)c21 | -0.5 | 1.7 | -1 | 58* | i | -47 | 12 | 8 | 0.3 | .
Cn1c(NCc2c[nH]c3ccccc23)nc2ccccc21 | . | -3.6 | 1 | -11 | . | 36 | 3 | -5 | -4.9 | -1
CCOc1ccc(C(=O)NCC(=O)Nc2ncccc2C)cc1OCC | -1.6 | . | -6 | -7 | . | 7 | 0 | 5 | 2.5 | -1
Nc1ccccc1C(=O)N/N=C1\C2CN3CCN(C2)CC1(c1ccccc1)C3 | . | -1.6 | -9 | -4 | . | -13 | . | . | . | -8
Cc1ccc(SCCN2C(=O)NC(C)(C)C2=O)cc1 | 0.9 | 5.2 | 8 | -12 | i | 0 | -7 | -2 | -2.4 | -8
COC(=O)NNC(=O)COc1ccc2ccccc2c1Br | 0.3 | -3.7 | 5 | -14 | i | -19 | -11 | 3 | -1.0 | -2
C/C(=N\Nc1cccc(C(F)(F)F)c1)c1ccc(O)cc1 | 1.5 | 3.5 | -5 | -6 | i | 9 | . | . | . | -1
Cc1ccnc(NC(=O)c2ccccc2NC(=O)c2ccccc2)c1 | 1.7 | 7.2 | -5 | -9 | i | 7 | 3 | -19 | -1.1 | 1
CCOC(=O)c1c(SCC(=O)Nc2nc(C)cs2)nc(=O)[nH]c1C | -3.4 | -0.6 | 18 | -19 | i | 99* | 1 | 2 | -4.8 | -4

Screens deposited in PubChem BioAssay by Broad Institute.
